# Screening data (PubChem)
# Polio RdRp inh – poliovirus RNA polymerase inhibition. 150,000 compounds, 0.66% hits. AID 588519. P03300. % elongation, % (compound at 16.7 µg/mL). poliovirus polymerase elongation, fluorescence polarization; hits give low values; in the data active = % elongation below about 90%; note: some results filed as inactive read as strong as hits
# Target sequence (P03300 1749-2209 limits assumed): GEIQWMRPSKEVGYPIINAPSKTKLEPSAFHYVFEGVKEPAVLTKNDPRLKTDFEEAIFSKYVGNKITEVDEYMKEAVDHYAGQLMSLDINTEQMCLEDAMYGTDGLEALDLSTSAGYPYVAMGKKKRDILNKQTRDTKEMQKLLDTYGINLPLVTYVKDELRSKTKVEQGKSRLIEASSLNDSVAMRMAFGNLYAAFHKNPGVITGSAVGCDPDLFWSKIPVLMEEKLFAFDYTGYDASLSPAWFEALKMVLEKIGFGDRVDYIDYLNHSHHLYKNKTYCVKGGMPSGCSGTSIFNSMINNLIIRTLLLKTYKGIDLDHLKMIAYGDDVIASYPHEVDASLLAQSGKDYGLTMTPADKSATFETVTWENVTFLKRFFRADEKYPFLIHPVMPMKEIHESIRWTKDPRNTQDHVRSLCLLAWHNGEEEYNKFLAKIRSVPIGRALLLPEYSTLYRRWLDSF
# Polio RdRp inh intensity – second read-out of Polio RdRp inh, no call of its own (marks repeat the call); % elongation; measured here: total intensity read-out; formula for this scale not given here;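 total fluorescence in place of polarization; lower means less elongation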
# * marks the source's active call; other numbers are inactive results. Not all compounds are listed. The share of hits here may be higher or lower than overall.
SMILES,Polio RdRp inh,Polio RdRp inh intensity
CN(C)CCNC(=O)CCCn1c(=O)c2cccn2c2ccccc21,113,112
Cc1ccccc1NC(=O)CSc1nc(-c2ccc(F)cc2)c2cccc(C)c2n1,103,106
O=C(CCCn1c(=O)c2ccccc2n(Cc2cccc(Cl)c2)c1=O)NCCc1ccc(Cl)cc1,105,106
COc1ccc(Cl)cc1NC(=O)N(C)CCc1c(C)nn(C)c1C,109,109
COC(=O)c1ccc(NC(=O)c2cc(=O)c3ccc(C)cc3o2)cc1,105,97
Cc1cccc(-c2nc3scc(CCNC(=O)c4ccccc4Cl)n3n2)c1,110,108
CCOc1cc(CNS(=O)(=O)c2ccc3c(c2)CC(=O)N3C)cc(OCC)c1OCC,103,97
COc1ccc(NC(=O)Cn2c(=O)oc3cc(S(=O)(=O)N4CCCC4)ccc32)cc1OC,98,101
Cc1ccc2oc(C(=O)Nc3ccc(S(=O)(=O)N(C)Cc4ccccc4)cc3)cc(=O)c2c1,112,114
Cc1ccc2[nH]c(=O)c3cc(C(=O)N(CCCOC(C)C)Cc4ccco4)sc3c2c1,105,105
Cn1c(=O)oc2cc(S(=O)(=O)N3CCCC(C(=O)N4CCN(c5ccc(F)cc5)CC4)C3)ccc21 (stereo unspecified),109,110
N#Cc1c(C(F)(F)F)cc(-c2cccs2)nc1SCC(=O)Nc1ccc(Cl)cc1,111,135
CC1=C(C(=O)OCc2ccc(C)cc2)C(c2ccccc2Cl)CC(=O)N1 (stereo unspecified),101,105
CC1CCc2c(sc3nnn(CC(=O)Nc4ccccc4Cl)c(=O)c23)C1 (stereo unspecified),110,113
Cc1cccc(NC(=O)CCCn2c(C)c3cnn(-c4ccccc4)c(=O)c3c2C)c1C,106,109

# An excerpt from above in order of number of heavy atoms, ascending.
SMILES,Polio RdRp inh,Polio RdRp inh intensity
COc1ccc(Cl)cc1NC(=O)N(C)CCc1c(C)nn(C)c1C,109,109
COC(=O)c1ccc(NC(=O)c2cc(=O)c3ccc(C)cc3o2)cc1,105,97
Cc1cccc(-c2nc3scc(CCNC(=O)c4ccccc4Cl)n3n2)c1,110,108
Cc1ccccc1NC(=O)CSc1nc(-c2ccc(F)cc2)c2cccc(C)c2n1,103,106
Cc1cccc(NC(=O)CCCn2c(C)c3cnn(-c4ccccc4)c(=O)c3c2C)c1C,106,109
O=C(CCCn1c(=O)c2ccccc2n(Cc2cccc(Cl)c2)c1=O)NCCc1ccc(Cl)cc1,105,106

# Other records follow.
SMILES,Polio RdRp inh,Polio RdRp inh intensity
COc1cc(OC)c(C2C(C(=O)Nc3ccccc3)=C(C)Nc3ncnn32)cc1OC (stereo unspecified),109,111
COc1ccc(-c2cn3nc(N4CCC(C(=O)NCc5ccccc5F)CC4)sc3n2)cc1,106,112
CCCCN(CC)CCCNC(=O)c1cn(C)c(=O)c2c1c1ccccc1n2C,107,106
CCc1ccccc1N(C)C(=O)Nc1cn(CC(C)C)c(=O)c2ccccc12,99,86
O=C(c1cnc2c(c1)COc1ccccc1-2)c1ccccc1O,106,112
CC(C)Oc1ccc(CNC(=O)C2COc3ccccc3C2)cc1 (stereo unspecified),107,110
O=C(Nc1ccc(F)cc1)c1ccc(-n2cnc3cccnc32)cc1,108,114
COc1ccc(OC)c(NS(=O)(=O)c2ccc3c(c2)CCCN3C(=O)C2CCC2)c1,107,115
O=C(OCc1cc(=O)n2nc(C3CC3)sc2n1)c1cccc(NC(=O)c2ccccc2Cl)c1,109,108
CCC(CC)c1nn2c(=O)cc(COc3ccc(NC(=O)c4ccccc4Cl)cc3)nc2s1,113,111
CCn1cc(C(=O)N2CCN(c3cccc(C)c3)C(C)C2)c(=O)c2cc(S(=O)(=O)N3CCOCC3)ccc21 (stereo unspecified),98,102
COc1cccc(N2C(=O)C(CC(=O)Nc3ccccc3)N(CCc3sccc3C)C2=O)c1 (stereo unspecified),105,109
Cc1ccc(N2C(=O)CS(=O)(=O)C23C(=O)N(Cc2ccccc2C)c2ccccc23)cc1Cl (stereo unspecified),98,104
COc1ccc(OC)c(NC(=O)CCNS(=O)(=O)c2cccc3nsnc23)c1,106,110
Cc1ccc(CNC(=O)C(NS(=O)(=O)c2cccs2)C(C)C)cc1 (stereo unspecified),105,108
O=C(Nc1ccc2oc(-c3cccc4c(Br)cccc34)nc2c1)c1ccc(F)cc1,104,113
Cc1cccc(CNC(=O)c2ccc(C)c(-n3c(C)nc4cccnc43)c2)c1,104,110
O=C(NC1CC(=O)N(c2ccccc2)C1)C1CCCCC1 (stereo unspecified),100,94
CC(=O)c1cccc(NC(=O)c2cc3sc(Cl)cc3n2C)c1,106,107
CCOC(=O)c1c(-c2ccc(OC)cc2)oc2ccc(OCc3ccc(Br)cc3)cc12,106,110
Cc1ccc(C)c(CN2C(=O)c3ccccc3S(=O)(=O)c3ccc(C(=O)OCC4CCCO4)cc32)c1 (stereo unspecified),113,113
Cc1ccc(N2CC(NC(=O)c3cc4ccccc4o3)CC2=O)cc1 (stereo unspecified),113,100
COc1ccc(Cl)cc1NC(=O)Cn1c(=O)n(Cc2ccco2)c(=O)c2ccc(C(=O)NC3CCCC3)cc21,107,109
Cc1ccc2c(=O)cc(C(=O)Nc3nnc(C)s3)oc2c1,101,105
CCCN(CCC)CCNC(=O)C1CCCN(S(=O)(=O)c2cccc3nsnc23)C1 (stereo unspecified),108,110
O=C(Cn1c(=O)n(Cc2ccco2)c(=O)c2oc3ccccc3c21)Nc1ccc(F)c(Cl)c1,109,111
Cc1ccc(S(=O)(=O)c2nc(-c3ccc(F)cc3)oc2SCC(=O)NC2CCCCC2)cc1,109,104
O=C(CC1(O)C(=O)N(CCc2ccccc2)c2ccc(Br)cc21)c1ccc(F)cc1 (stereo unspecified),108,104
COc1ccc(OC)c(CCNC(=O)c2cnn(-c3ccccc3)c2C2CCN(C(=O)OC(C)(C)C)CC2)c1,111,107
Cc1ccccc1C(=O)Nc1cc(-c2ccc(Cl)cc2)nn1-c1ccccc1,111,116
CCCn1c(=O)sc2cc(NC(=O)COc3ccc(Cl)cc3)ccc21,112,115
CCOC(=O)c1ccc(NC(=O)c2oc(=O)c3ccccc3c2-c2ccccc2)cc1,106,107
Cc1ccc(CNC(=O)Cn2c(=O)cc(C(F)(F)F)c3c(C)nn(C)c32)cc1,109,109
COc1ccc(Cn2c(SCc3ccc(C(=O)NC(C)c4ccccc4)cc3)nc3cccnc32)cc1 (stereo unspecified),112,113
Cc1ccc(Nc2nnc(-c3ccc(C)c(S(=O)(=O)N4CCN(C)CC4)c3)c3ccccc23)cc1,106,106
COC(=O)c1ccccc1NC(=O)Cn1c(=O)n(Cc2ccc(C(=O)NCc3ccc4c(c3)OCO4)cc2)c(=O)c2ccccc21,107,109
O=C(NCc1ccc2c(c1)CCN2C(=O)c1ccncc1)c1ccccc1F,102,98
Cc1cccc(NC(=O)N2CCC3(CC2)Oc2ccccc2C(=O)N3Cc2ccccc2F)c1C,111,110
O=C(Nc1ccc(Br)c2cccnc12)c1cccc2ccccc12,102,103
Cc1cc(C)c(NC(=O)CSc2nc3nccnc3c(=O)n2CCc2c[nH]c3ccccc23)c(C)c1,109,112
COc1cc(OC)c(NC(=O)CCc2nc(C3=CCN(Cc4cccc(Cl)c4)CC3)no2)cc1Cl,107,107
O=C(CSc1nnc(-c2cccs2)o1)Oc1ccccc1Cl,91,93
CCOc1ccc(-c2cc(-c3nc(-c4ccc(C)cc4)no3)[nH]n2)cc1,107,108
Cc1ccc(Cn2ccn(Cc3ccccc3F)c(=O)c2=O)cc1,104,100
O=C(Nc1ccc(Cl)cc1F)c1cc(S(=O)(=O)NC2CCCCCC2)ccc1F,103,104
Cc1ccc(CCNC(c2ccc(F)cc2)c2nnc(-c3ccccc3Cl)o2)cc1 (stereo unspecified),106,110
COc1ccc(S(=O)(=O)c2c(O)c3ccc(C(=O)Nc4ccccc4)cc3[nH]c2=O)cc1,104,105
COc1ccccc1CNC(=O)CC1N=C2c3ccccc3N=C(SCC(=O)Nc3ccc(F)cc3)N2C1=O (stereo unspecified),105,105
CCS(=O)(=O)N1CC(=O)N(c2cc(Cl)ccc2C)C(C)(C(=O)NC2CCCCCC2)C1 (stereo unspecified),107,111
CCCOc1ccc(C(=O)N(Cc2cccs2)c2ccc(C)cc2)cc1,111,107
Cc1ccc(CCNS(=O)(=O)c2cc(-c3cc(C)no3)ccc2C)cc1,108,109
CCOC(=O)C1CCCN(C(=O)c2cc3c(=O)[nH]c4ccc(C)cc4c3s2)C1 (stereo unspecified),105,108
CC(=O)N1c2ccc(S(=O)(=O)N3CCCCCC3)cc2CC1C(=O)NCc1ccccc1 (stereo unspecified),100,107
CCOc1ccc(C(=O)Nc2ccc(Cl)c(-c3nc4cc(C)cc(C)c4o3)c2)cc1,105,108
Cc1nn(CC(=O)Nc2ccc(C(C)C)cc2)c(=O)c2c(C)n(-c3ccc(Cl)cc3)nc12,104,108
COc1ccc(CN(Cc2ccco2)C(=O)COc2ccccc2OC)cc1,103,110
CCCC12CN3CC(CCC)(CN(C1)C3c1ccccc1)C2=O (stereo unspecified),108,110
CCc1ccc(NC(=O)c2ccc(F)c(S(=O)(=O)N(C)C3CCCCC3)c2)cc1,111,113
CCOc1ccccc1NC(=O)c1sc2nc(C)cc(C)c2c1N,108,106
CCSc1ncc(Cl)c(C(=O)N(Cc2ccc(N(C)C)cc2)Cc2ccco2)n1,105,105
# New compounds follow.
SMILES,Polio RdRp inh,Polio RdRp inh intensity
COc1ccc(CCNc2ncnc3c2cnn3-c2cc(Cl)ccc2C)cc1,111,96
CC(C)(C)OC(=O)N1CCC(c2c(C(=O)N3CCN(C(=O)c4ccco4)CC3)cnn2-c2ccccc2)CC1,103,105
CCOC(=O)c1c(C)[nH]c(C)c1S(=O)(=O)N(C)CC(=O)Nc1ccc(C)cc1Br,113,114
COc1ccc(C(=O)NCC(c2ccc(N(C)C)cc2)N2CCc3ccccc32)c(OC)c1 (stereo unspecified),97,104
CCN1C(C(=O)c2ccccc2)=C(OC(=O)c2ccc(Cl)cc2)c2ccccc2S1(=O)=O,112,115
CCOC(=O)c1ccc(NC(=O)/C(C#N)=C/c2ccc(OC)cc2)cc1,107,117
COc1ccc(C)cc1S(=O)(=O)Nc1cccc(-c2ccc(N3CCC(C)CC3)nn2)c1,114,116
CCCN(C(=O)Cn1ncc2c([nH]c3ccccc32)c1=O)c1ccc(F)cc1,98,106
Cc1ccccc1-n1c(=O)c2c3c(sc2n2cnnc12)CCCC3,113,115
CC1CCN(S(=O)(=O)c2ccc3c(c2)N(CC(=O)NC(C)c2ccccc2)C(=O)CO3)CC1 (stereo unspecified),104,99
Cc1cccc(Cn2c(=O)n(-c3cc(C)cc(C)c3)c(=O)c3oc4ccccc4c32)c1,109,111
CCOc1ccc(S(=O)(=O)n2nc(C)c(S(=O)(=O)N3CCCCC3)c2C)cc1,104,107
CCCCNc1ccc(-c2nc(-c3ccco3)no2)cc1[N+](=O)[O-],112,117
Cc1cccc(NC(=O)CN(C)S(=O)(=O)c2ccc3c(c2)c(=O)n(C)c(=O)n3C)c1C,98,98
Cc1ccc(C)c(S(=O)(=O)NCCc2csc(-c3ccc(Cl)cc3)n2)c1,109,108

# Full records from above. Values in the order: Polio RdRp inh, Polio RdRp inh intensity
# CCN1C(C(=O)c2ccccc2)=C(OC(=O)c2ccc(Cl)cc2)c2ccccc2S1(=O)=O as listed: 112, 115
# CC1CCN(S(=O)(=O)c2ccc3c(c2)N(CC(=O)NC(C)c2ccccc2)C(=O)CO3)CC1 (stereo unspecified) as listed: 104, 99
# CCOc1ccc(S(=O)(=O)n2nc(C)c(S(=O)(=O)N3CCCCC3)c2C)cc1 as listed: 104, 107
# CCOC(=O)c1ccc(NC(=O)/C(C#N)=C/c2ccc(OC)cc2)cc1 as listed: 107, 117
# Cc1cccc(NC(=O)CN(C)S(=O)(=O)c2ccc3c(c2)c(=O)n(C)c(=O)n3C)c1C as listed: 98, 98

# More structures follow:
SMILES,Polio RdRp inh,Polio RdRp inh intensity
Cc1nc2ccccn2c(=O)c1NC(=O)c1cccc(F)c1,109,117
COc1ccc(CNC(=O)C2CCN(C(=O)c3ccc(-n4ccc5ccccc54)s3)CC2)cc1,109,108
Cc1ccc(NC(=O)CSc2[nH]c(=O)ncc2C)cc1,104,107
Cn1c(=O)c2c(-c3cccc(Br)c3)n(C(C)(C)CO)cc2n(C)c1=O,109,109
COc1ccc(NC(=O)NCc2cccn2Cc2ccc(F)cc2)cc1OC,113,113
O=C(Cn1c(=O)n(-c2cccc(Cl)c2)c(=O)c2sc3ccccc3c21)N1CCCC1,107,106
CC(=O)N1c2c(cc(Br)cc2S(=O)(=O)Nc2ccccc2C)CC1C (stereo unspecified),105,106
Cn1cc(S(=O)(=O)N2CCc3ccccc32)cc1C(=O)Nc1ccc(C(F)(F)F)cc1,104,109
CCOC(=O)c1ccccc1NC(=O)CCc1nc(-c2ccc(C)cc2)no1,100,97
CCC(C(=O)N1CCN(c2cccc(C)c2C)CC1)n1nc(C)c2sc3ccccc3c2c1=O (stereo unspecified),114,109
CCOc1ccc(Cn2nnc(C(=O)Nc3cccc(SC)c3)c2N)cc1,102,103
Cc1cc(C)cc(N2CCn3c2nc2c3c(=O)n(Cc3ccc(Cl)cc3)c(=O)n2C)c1,100,102
Cc1ccc(C#N)c(=O)n1CC(=O)Nc1ccccc1C(F)(F)F,104,103
Cc1ccc(NC(=O)CSc2nc(=O)cc(N)n2-c2ccccc2)cc1,102,102
O=C(NCCC1=CCCCC1)C1CCN(C(=O)N2CCOc3ccc(Cl)cc32)CC1,115,107
